Screening data: PubChem, ICCB-Longwood Screening Facility, Harvard Medical School
HCMV NEC inh = inhibitors of HCMV UL50-UL53 interaction, biochemical, HTRF. normalized percent inhibition. inhibition, % (test concentration not listed). hit rate 0.15% among 190,000. HCMV UL50-UL53 nuclear egress complex (human cytomegalovirus);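 active = both replicates at 50% or more, plus weaker picks with an unusually low signal ratio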;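 note: stock transfer was 100 nL into about 20 µL; 0% = negative control wells and 100% = wells with untagged competitor protein; inactives centre near -12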
Sa growth inh = S. aureus growth inhibition at 42 and 30 °C, primary screen, LtaS inhibitor project, RN4220, two temperatures; OD600, 20 h, 42 °C; stronger effect = lower value; relative growth, % (concentration not given with the values); hit rate 0.53% among 170,000;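 active = growth at 42 °C up to 50% and 20 or more points under that at 30 °C, or under 10% at both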;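 note: 300 nL library stock went into each well; scaled to the means of positive and negative controls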
GIV-Gai inh = inhibitors of GIV peptide binding to Galpha-i3, primary screen, biochemical, fluorescence polarization, FITC-GIV GBA peptide, rat Galphai3; Guanine nucleotide-binding protein G(i) subunit alpha-3 (Rattus norvegicus), P08753; 90 min; stronger effect = lower value; scaled: aluminum fluoride 0%, vehicle 100%; percent of control (FP), % (concentration not given with the values); hit rate 0.42% among 210,000; AID 1224905, 2016;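 active = replicate mean at 85% of control or lower, very high polarization wells dropped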;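 note: wells of about 15 µL received 100 nL stock; the first replicate is given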
Target sequence (P08753 whole entry, looked up): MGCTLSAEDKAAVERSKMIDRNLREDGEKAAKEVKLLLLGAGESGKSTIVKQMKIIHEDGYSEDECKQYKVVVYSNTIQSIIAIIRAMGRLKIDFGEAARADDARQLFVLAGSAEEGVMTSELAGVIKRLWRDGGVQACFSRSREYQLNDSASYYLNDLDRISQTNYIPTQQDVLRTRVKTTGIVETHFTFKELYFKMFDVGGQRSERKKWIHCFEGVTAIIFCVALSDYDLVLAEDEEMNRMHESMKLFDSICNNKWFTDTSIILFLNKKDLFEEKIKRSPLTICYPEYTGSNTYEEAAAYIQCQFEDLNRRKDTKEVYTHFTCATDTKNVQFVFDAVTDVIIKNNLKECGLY
Sa growth inh second temp = also measured in Sa growth inh; calls as there; relative growth, %; measured here: growth at 30 °C;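 optical density after 20 h as mean of two plates; 100% = untreated growth and lower means inhibition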
Active calls of the source: *; . = not tested or not shown.

SMILES	HCMV NEC inh	Sa growth inh	Sa growth inh second temp	GIV-Gai inh
Cc1ccc2oc(=O)c3cnn(CC(=O)Nc4ccc(Br)cc4C)c3c2c1	-39	98	92	104
CC(=O)c1ccc(S(=O)(=O)Nc2cccc(-c3ccc(N4CCCCCC4)nn3)c2)cc1	.	113	88	108
CC1CCN(C(=O)CN2CCSc3ccccc32)CC1	.	101	89	109
CS/C(NCc1cccs1)=C(\C#N)S(=O)(=O)c1ccc(Cl)cc1	-2	100	94	102
O=C(Cn1cnc2ccccc2c1=O)Nc1ccccc1N1CCCCC1	-3	.	.	106
Cc1ccccc1NC(=O)CC1Nc2ccccc2NC1=O (stereo not drawn)	-24	112	77	.
COC(=O)c1sccc1NC(=O)Cn1ccn2nc(-c3ccc(OC)cc3)cc2c1=O	-15	.	.	99
O=C(O)c1ccc(NCCC(=O)c2ccccc2)cc1	-29	78	83	100
CN1C(=O)/C(=C/c2ccc(SCc3ccccc3)o2)SC1=S	.	84	80	149
O=C(Cn1ccccc1=O)Nc1ccc2c(c1)OC1(CCCC1)O2	5	97	94	.
CCOC(=O)c1nc2c3nsnc3ccc2n(C)c1=O	-231	.	.	98
COc1cccc(-c2nn(Cc3ccccc3C)c(=O)c3noc(C)c23)c1	-40	.	.	121
O=C(Oc1ccc(C2Oc3ccccc3C3CC(c4ccc(Br)cc4)=NN32)cc1)c1ccc(Br)cc1 (stereo not drawn)	-9	.	.	99
FC(F)(F)COc1ccc(OCC(F)(F)F)c(-c2ccn[nH]2)c1	0	89	93	104
O=C1NC(c2ccccc2)C(C(=O)c2ccco2)=C1O (stereo not drawn)	-17	104	86	.
CC(C)Sc1cc(C#N)c2cc(Br)ccc2n1	-1	114	93	101
O=C(OCc1cnc(Cl)s1)c1ccccc1Cl	2	.	.	104
COC(=O)c1ccccc1NC(=O)c1ccc2nc(CCc3ccccc3)oc2c1	.	107	105	100
CC(=O)c1ccc(NC(=O)CSc2ccc3nnc(CCNS(=O)(=O)c4ccc(C)cc4)n3n2)cc1	.	118	79	113
Cc1c(C)n(-c2ccc(F)cc2)c2ncnc(Cl)c12	-14	.	.	99
O=C(c1cccc(C(=O)N2CCc3ccccc32)c1)N1CCc2ccccc21	.	95	85	99
CCOC(=O)c1sc2nc(CC(=O)OC)nc(N3CCN(c4ccccc4)CC3)c2c1C	14	.	.	108
O=C(Cc1ccc(S(=O)(=O)N2CCOCC2)s1)Nc1ccc2ccccc2c1	-14	100	87	.
Cc1ccc(CS(=O)(=O)c2ccc(C(F)(F)F)cn2)cc1	-11	88	83	101
CCOc1nc2c(c(-c3ccco3)c1C#N)Cc1ccccc1-2	-18	104	90	109
Cc1cc(=O)n(CC(=O)NC(C)c2ccccc2)c2c1c(C)nn2-c1cccc(F)c1 (stereo not drawn)	.	84	91	105
O=C(O)Cn1nc(-c2ccccc2)cc1-c1ccccc1	-8	101	84	99
Cn1cc(Cl)c(-c2nc(-c3ccc(Cl)cc3)cs2)n1	0	103	100	110
CCC(C)NC(=O)C1CCN(c2nn3c(=O)cc(C)nc3s2)CC1 (stereo not drawn)	-27	.	.	104
COc1ccc(-n2c(SCC(=O)NCc3ccc(F)cc3)nc3c([nH]c4ccccc43)c2=O)cc1	.	109	83	99
CCCNC(=O)c1ccc2c(c1)sc1nc(-c3ccccc3)cn12	.	99	46	107
CC(C)CCn1c(=O)c2ccccc2n2c(=O)n(CC(=O)Nc3ccc(F)cc3F)nc12	-2	.	.	102
CCOC(=O)c1cc(-c2ccc(OC)c(S(=O)(=O)Nc3ccc(OC)cc3)c2)on1	-31	96	74	105
Cc1cccc(N2C(=O)N(c3cccc(Cl)c3)C3CS(=O)(=O)CC32)c1 (stereo not drawn)	.	99	76	100
CCc1ccc(-n2[nH]c3c(c2=O)Cc2cc(Cl)ccc2O3)cc1	-33	.	.	101
Cc1cccc[n+]1C/C=C\c1ccccc1	.	88	101	110
CCSc1nnc(NC(=O)C(Cc2ccccc2)NS(=O)(=O)c2cccc3nsnc23)s1 (stereo not drawn)	0	109	102	104
COc1c2ccoc2nc2c(OC)c(OC(C)=O)ccc12	-79	99	94	102
CO/N=C1\CC(C)(C)Cc2c(-c3ccn(C(C)=O)n3)sc(SC)c21	-1	102	99	105
CC(C)C1C(C#N)=C(N)OC2=C1C(=O)CC(C)(C)C2 (stereo not drawn)	6	107	89	.
CCOc1ccc(OCC)c(NC(=O)CC2Oc3ccccc3NC2=O)c1 (stereo not drawn)	-1	104	83	103
O=C(NCc1ccccc1)C1CCCN(C(=O)Nc2ccccc2)C1 (stereo not drawn)	8	120	101	106
O=C(NCc1ccccc1)c1ccc(-n2nnc3cccnc32)cc1	-27	.	.	115
CN(C)c1ccc(NC(=O)CSc2nc3ccncc3[nH]2)cc1	-8	87	85	101
COc1ccc(Cl)cc1NC(=O)c1cc2c(=O)n3ccccc3nc2s1	-34	94	90	102
CCN1CCCC1CNC(=O)c1cc2c(=O)oc3ccc(C)cc3c2s1 (stereo not drawn)	.	86	76	120
Cc1cnc(C(=O)Nc2ccc(OC(F)F)c(Cl)c2)cn1	-28	70	75	.
O=c1c(=S)[nH]ccn1-c1cccc(F)c1	-61	.	.	95
COc1ccc(C(=O)Nc2ccc(-c3n[nH]c(=S)o3)cc2)cc1	.	99	80	97
Cc1ccccc1OCCCC(=O)NCc1ccco1	4	117	110	107
Cc1ccc(-c2nc(N)oc2-c2ccc(C)cc2)cc1	-15	87	93	.
Cc1ccc(-n2c3nc(=O)[nH]c(=O)c-3cc3c(C)nn(-c4ccccc4)c32)cc1C	-24	76	100	105
COc1ccc(C2CC(C(F)(F)F)n3nc(C(=O)Nc4c(C)n(C)n(-c5ccccc5)c4=O)c(Cl)c3N2)cc1 (stereo not drawn)	-30	.	.	93
CCc1ccc(CNC(=O)CSc2c3c(nc4ccc(Cl)cc24)CCCC3)cc1	-38	101	89	100
COc1cc2c(cc1OC)C(C)N(C(=O)CCC(=O)O)CC2 (stereo not drawn)	-20	97	86	101
O=S(=O)(c1ccccc1)N1CCC(Oc2ccc(-n3cnnn3)cc2)CC1	-7	102	85	96
O=C(Nc1ccc2oc(-c3cccnc3)nc2c1)c1ccc(-c2ccccc2)o1	-86	86	50	101
O=C(CN1CCCC1)N1N=C(c2cccs2)CC1c1cccs1 (stereo not drawn)	-34	105	80	100
CC1(C)Cc2cccc(C(=O)Nc3ccc(S(N)(=O)=O)cc3)c2O1	9	94	108	100
c1ccc2sc(C3CCCN3)nc2c1 (stereo not drawn)	4	.	.	105

22 of these compounds in another layout.
smiles | HCMV NEC inh | Sa growth inh | Sa growth inh second temp | GIV-Gai inh
Cc1cccc[n+]1C/C=C\c1ccccc1 | . | 88 | 101 | 110
CCSc1nnc(NC(=O)C(Cc2ccccc2)NS(=O)(=O)c2cccc3nsnc23)s1 (stereo not drawn) | 0 | 109 | 102 | 104
COc1c2ccoc2nc2c(OC)c(OC(C)=O)ccc12 | -79 | 99 | 94 | 102
CO/N=C1\CC(C)(C)Cc2c(-c3ccn(C(C)=O)n3)sc(SC)c21 | -1 | 102 | 99 | 105
CC(C)C1C(C#N)=C(N)OC2=C1C(=O)CC(C)(C)C2 (stereo not drawn) | 6 | 107 | 89 | .
CCOc1ccc(OCC)c(NC(=O)CC2Oc3ccccc3NC2=O)c1 (stereo not drawn) | -1 | 104 | 83 | 103
O=C(NCc1ccccc1)C1CCCN(C(=O)Nc2ccccc2)C1 (stereo not drawn) | 8 | 120 | 101 | 106
O=C(NCc1ccccc1)c1ccc(-n2nnc3cccnc32)cc1 | -27 | . | . | 115
CN(C)c1ccc(NC(=O)CSc2nc3ccncc3[nH]2)cc1 | -8 | 87 | 85 | 101
COc1ccc(Cl)cc1NC(=O)c1cc2c(=O)n3ccccc3nc2s1 | -34 | 94 | 90 | 102
CCN1CCCC1CNC(=O)c1cc2c(=O)oc3ccc(C)cc3c2s1 (stereo not drawn) | . | 86 | 76 | 120
Cc1cnc(C(=O)Nc2ccc(OC(F)F)c(Cl)c2)cn1 | -28 | 70 | 75 | .
O=c1c(=S)[nH]ccn1-c1cccc(F)c1 | -61 | . | . | 95
COc1ccc(C(=O)Nc2ccc(-c3n[nH]c(=S)o3)cc2)cc1 | . | 99 | 80 | 97
Cc1ccccc1OCCCC(=O)NCc1ccco1 | 4 | 117 | 110 | 107
Cc1ccc(-c2nc(N)oc2-c2ccc(C)cc2)cc1 | -15 | 87 | 93 | .
Cc1ccc(-n2c3nc(=O)[nH]c(=O)c-3cc3c(C)nn(-c4ccccc4)c32)cc1C | -24 | 76 | 100 | 105
COc1ccc(C2CC(C(F)(F)F)n3nc(C(=O)Nc4c(C)n(C)n(-c5ccccc5)c4=O)c(Cl)c3N2)cc1 (stereo not drawn) | -30 | . | . | 93
CCc1ccc(CNC(=O)CSc2c3c(nc4ccc(Cl)cc24)CCCC3)cc1 | -38 | 101 | 89 | 100
COc1cc2c(cc1OC)C(C)N(C(=O)CCC(=O)O)CC2 (stereo not drawn) | -20 | 97 | 86 | 101
O=S(=O)(c1ccccc1)N1CCC(Oc2ccc(-n3cnnn3)cc2)CC1 | -7 | 102 | 85 | 96
O=C(Nc1ccc2oc(-c3cccnc3)nc2c1)c1ccc(-c2ccccc2)o1 | -86 | 86 | 50 | 101

(further entries)
SMILES	HCMV NEC inh	Sa growth inh	Sa growth inh second temp	GIV-Gai inh
CCOC(=O)Cn1c(=O)oc2cc(S(=O)(=O)N3CCC(Cc4ccccc4)CC3)ccc21	-31	.	.	101
COc1cccc(C(=O)CN2C(=O)C(C)(C)Oc3ccc(C(=O)N4CCOCC4)cc32)c1	2	95	75	100
COc1cc(OC)cc(-n2c(=O)c3sccc3n(Cc3c(C)cc(C)cc3C)c2=O)c1	16	91	98	105
CC(C)(C)C1CCc2c(sc3nc(CCC(=O)N4CCN(c5ccccc5F)CC4)[nH]c(=O)c23)C1 (stereo not drawn)	0	.	.	100
Cc1ccc(C(=O)NCCc2c[nH]c3ccc(Cl)cc23)cc1-n1nnc2cccnc21	-39	.	.	104
CC1(C)CC(=O)C=C(NC(=O)Nc2ccccc2)C1	-49	93	84	105
CC(=O)N[C@H]1[C@H](Oc2nc3ccccc3o2)O[C@H](CO)[C@@H](O)[C@@H]1O	-9	97	88	107
O=C(O)CCc1nnc2n(Cc3ccccc3Cl)c(=O)c3ccccc3n12	-6	90	92	111
CC1CN(CCOc2ccccc2)CC(C)O1 (stereo not drawn)	1	106	100	108
COc1ccc(NC(=O)CSc2nc(-c3cccs3)cc(C(F)(F)F)c2C#N)cc1	-13	101	89	118
COc1ccc(OC)c(CCNc2nccn(-c3ccc(C)c(C)c3)c2=O)c1	.	110	84	97
COc1cccc(C2=CC(c3ccccc3F)n3ncc(C(=O)Nc4cc(Cl)ccc4C)c3N2)c1 (stereo not drawn)	-36	.	.	101
O=C(NCc1ccccc1)C1CCN(C(=O)N2CCOc3ccccc32)CC1	-19	99	86	104
COc1ccc(C(=O)NCCn2cc(SCC(=O)Nc3ccc4c(c3)OCCO4)c3ccccc32)cc1	9	113	100	105
CCOc1cc(Br)c(N2C(=NC(C)=O)SC3CS(=O)(=O)CC32)cc1OCC (stereo not drawn)	-8	85	77	100
O=C(CCSCc1cnn(-c2ccccc2)c1-n1cccc1)NCc1ccc(F)cc1	.	109	77	100
O=C(CSc1ncn(-c2ccccc2)n1)c1ccc(Cl)cc1	-41	85	82	100
CC(Sc1nnc(-c2ccncc2)n1C)c1ccccc1Cl (stereo not drawn)	-38	97	82	.
Cc1ccc(Nc2c(-c3ccc(N4CCOCC4)cc3)nc3ncccn23)cc1C	-13	109	88	109
CCOC(=O)c1cc(-c2csc(-c3ccc(Cl)cc3)n2)on1	-41	93	76	102
CCc1nnc(NC(=O)c2cc(=O)c3cc(Cl)c(C)cc3o2)s1	-2	.	.	99
CCOC(=O)c1c(NC(C)=O)c2c3c(sc2n1Cc1nc(-c2cccc(Cl)c2)oc1C)CCCC3	-24	99	82	103
CCC(=O)Nc1cccc(N2CCn3c(nc4ccccc43)C2)c1	-25	.	.	105
Cc1ccc2c(CC(=O)NC3=NCCS3)coc2c1	-11	126	100	.
COCCOC(=O)c1c(NC(=O)CNCc2ccco2)sc(C(N)=O)c1C	8	109	93	.
C=CCNc1nc(OC)nc(OC)n1	-3	100	117	101
CC(=O)NN1C(=O)/C(=C\c2ccc(I)o2)SC1=S	-57	82	72	131
CC(C)c1ccc(S(=O)(=O)Nc2ccc(O)c(Sc3nc4ccccc4s3)c2)cc1	-28	105	113	104
Oc1ccc(C(=S)N2CCOCC2)cc1	4	88	77	110
O=C(NC1CCCCC1)c1ccc(Cl)cc1	3	88	74	97
CC(=O)Nc1cccc(OCC(=O)N2N=C(c3ccc(Cl)cc3)CC2c2ccco2)c1 (stereo not drawn)	-11	87	87	.
Nc1nc(SCC(=O)NCC2CCCO2)n[nH]1 (stereo not drawn)	-16	94	88	.
COc1ccc(C2=NN(S(=O)(=O)c3ccc(C)cc3)C(c3cccc(OC)c3OC)C2)cc1OC (stereo not drawn)	-15	.	.	108
O=C(CCc1nnc2ccc(NCc3ccc4c(c3)OCO4)nn12)NCC1CCCO1 (stereo not drawn)	-23	.	.	101

Look-ups from the entries so far.
Value of Oc1ccc(C(=S)N2CCOCC2)cc1 under GIV-Gai inh: 110
Value of COc1ccc(C2=NN(S(=O)(=O)c3ccc(C)cc3)C(c3cccc(OC)c3OC)C2)cc1OC (stereo not drawn) under HCMV NEC inh: -15
